# KCNQ2 pot = potentiators of rat KCNQ2 potassium channel. Potassium voltage-gated channel subfamily KQT member 2 (Rattus norvegicus), O88943. CHO-K1 KCNQ2, FluxOR thallium flux fluorescence; stronger effect = higher value. B-score at 10 µM. 310,000 compounds, 0.54% hits. AID 2239, 2010;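 active means fluorescence ratio B-score at least 3 SD of library B-scores, with initial fluorescence B-score within 3 SD, cut at about 5.3 in these data; same plate scores as AID 2156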;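 further: B-score of peak minus minimum over baseline fluorescence ratio after K+ and Tl+ stimulus; positive B-score means potentiation of KCNQ2 with more thallium influx and brighter signal; only the inactives scoring about 0 or higher are listed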
# Target sequence (O88943 whole entry, looked up): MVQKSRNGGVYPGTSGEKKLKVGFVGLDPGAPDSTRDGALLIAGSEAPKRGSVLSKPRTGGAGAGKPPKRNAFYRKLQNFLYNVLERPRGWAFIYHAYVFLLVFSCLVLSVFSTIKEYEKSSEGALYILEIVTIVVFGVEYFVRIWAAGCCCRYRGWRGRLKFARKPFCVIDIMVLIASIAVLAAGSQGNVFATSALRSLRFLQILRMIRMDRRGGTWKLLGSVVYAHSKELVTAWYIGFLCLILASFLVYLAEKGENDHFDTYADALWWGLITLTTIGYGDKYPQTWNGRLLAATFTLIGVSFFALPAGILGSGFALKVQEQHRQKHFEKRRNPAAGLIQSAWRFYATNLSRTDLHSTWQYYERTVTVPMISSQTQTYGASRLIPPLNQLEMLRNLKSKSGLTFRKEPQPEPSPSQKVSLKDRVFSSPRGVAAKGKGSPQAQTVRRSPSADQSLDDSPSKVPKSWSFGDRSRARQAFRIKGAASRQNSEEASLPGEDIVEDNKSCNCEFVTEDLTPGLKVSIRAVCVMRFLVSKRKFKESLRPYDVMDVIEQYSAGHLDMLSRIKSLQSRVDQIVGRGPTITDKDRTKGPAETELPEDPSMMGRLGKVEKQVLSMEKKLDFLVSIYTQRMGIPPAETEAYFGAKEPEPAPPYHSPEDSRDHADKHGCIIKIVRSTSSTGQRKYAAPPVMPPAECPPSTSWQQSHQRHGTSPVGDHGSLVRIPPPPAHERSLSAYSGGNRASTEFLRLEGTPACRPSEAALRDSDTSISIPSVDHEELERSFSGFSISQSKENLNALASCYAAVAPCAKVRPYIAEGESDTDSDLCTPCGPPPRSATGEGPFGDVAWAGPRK
# KCNQ2 pot baseline = second read-out of KCNQ2 pot, no call of its own (marks repeat the call); B-score; compound at 10 µM; measured here: initial fluorescence intensity artifact check;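 brightness before thallium and not channel activity; 0 = typical well and far values either way flag optical interference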
# The depositor's hits bear a star. An excerpt; rates above refer to the full screens.
Compound	KCNQ2 pot	KCNQ2 pot baseline
CCOC(=O)C1=C(COC(=O)c2cc(OC)c(OC)c(OC)c2)NC(=O)NC1C (centres undefined)	0.3	-2.43
Cc1ccc(-c2c[n+](=O)c3c(n2[O-])CCC3)cc1	0.84	0.46
COC(=O)COc1ccc(C2Nc3c(Cl)ccc(C(=O)O)c3C3C=CCC32)cc1 (centres undefined)	0.13	-0.81
O=C(NC(=S)NCCN1CCOCC1)c1ccccc1Br	0.03	-2.31
O=C(CCC(=O)NNC(=O)c1ccc([N+](=O)[O-])cc1)NCc1ccccc1	1.9	-0.35
O=C(CSc1nnnn1-c1ccccc1)NCc1ccco1	0.88	0.01
CO/N=C/C(=N\Nc1ccc(C)cc1)C(=O)c1ccc(OC)cc1	0.68	-0.05
O=C(NCCc1ccccc1)c1c(F)cccc1F	0.16	-0.82
CC1CCCN(C(=O)CSc2nnc(-c3ccc(O)cc3)o2)C1 (centres undefined)	0.29	-0.02
CNC(=O)c1ccsc1NC(=O)CCS(=O)(=O)c1ccc(F)cc1	0.37	1.16
Cc1cc(/C=N/Nc2ccc([N+](=O)[O-])cn2)c(C)n1-c1cccc(C(=O)O)c1	0.1	0.16
COc1cccc(CN(C)S(=O)(=O)c2cccs2)c1	0.26	-0.93
COC(=O)C(C)Oc1ccc2c3c(c(=O)oc2c1)CCCCC3 (centres undefined)	1.41	0.36
O=C(N/N=C/c1c(O)n(-c2ccc(Cl)cn2)c(=O)c2ccccc12)C1CC1	0.24	-0.06
COc1ccc(Cc2nc3ccccc3n2CC(=O)N/N=C/c2ccc(C)cc2O)cc1OC	0.44	-0.29
COC(=O)c1cc(OC)c(OC)cc1NC(=O)c1ccc(Br)o1	1.87	-0.12
Cc1csc(NC(=O)c2ccc(-c3ccc(Cl)cc3Cl)o2)n1	0.76	0.96
CC(CC1C(C#N)=C(N)OC2=C1C(=O)CCC2)c1ccccc1 (centres undefined)	0.18	0.04
CC(NC(=O)c1ccco1)c1ccc2c(c1)OCO2 (centres undefined)	0.67	0.02
N#Cc1c(N)n(-c2cccc(O)c2)c2nc3ccccc3nc12	0.17	-3.14
CCN(CC)CCNc1nc(-c2ccccc2)nnc1C(F)(F)F	9.04*	-0.21*
COCCCN1Cc2cccc(C(=O)O)c2C1=O	0.58	-2.38
Cc1ccc2c(c1)nnn2C1CCN(S(C)(=O)=O)CC1	0.77	1.37
Cc1ccc(NC(=O)COC(=O)C2=COCCO2)c([N+](=O)[O-])c1	1.15	-1.14
CN(C)c1ccc(/C=N/NC2=NS(=O)(=O)c3ccccc32)cc1	0.77	0.31
CCCSc1ccc(C(=O)Nc2ccc(Cl)cc2)cn1	0.31	2.45
Cc1ccc(C(=O)NCCN2C3=NC[C@H](C)N3C[C@H]2Cc2ccc(O)cc2)cc1Br	2.64	-0.54
CCOc1ccc(OCCOc2ccc(/C=C/C(=O)O)cc2OCC)cc1	3.04	-0.53
O=C(NCC(c1ccco1)N1CCOCC1)c1ccc([N+](=O)[O-])cc1 (centres undefined)	1.01	1.16
NC(=O)c1nsc(C(=O)N(c2ccccc2)C(C(=O)NCC2CCCO2)c2cccs2)c1N (centres undefined)	2.51	-2.22
CCC(C(=O)OC)n1cnc2c(oc3ccccc32)c1=O (centres undefined)	0.55	0.95
CCOc1ccc(C(=O)NCC(c2ccco2)N2CCOCC2)cc1 (centres undefined)	0.69	-1.62
CC1CCCC/C1=N/Nc1ccc([N+](=O)[O-])cc1[N+](=O)[O-] (centres undefined)	0.38	0.37
NC(=O)c1cc2nc(-c3ccco3)cc(C(F)(F)F)n2n1	2.62	-3.31
CC(OC(=O)c1ccc2c(c1)S(=O)(=O)c1ccccc1C2=O)C(N)=O (centres undefined)	1.08	1.42
Cn1nc(C(F)(F)F)c(/C=N/OCc2c(Cl)cccc2Cl)c1Cl	1.42	3.19
Cc1ccc2ccc[n+](Cc3ccccc3)c2c1	0.03	-0.75
COc1ccc(N2C(=O)CC(SCc3ccc(Cl)cc3)C2=O)cc1 (centres undefined)	1.11	0.72
O=C(NCCNC(=O)c1cnccn1)c1ccc(Cl)cc1	0.22	-1.03
COc1ccc(CCNc2nc(N3CCOCC3)nc(N3CCOCC3)n2)cc1OC	1.47	0.34
CC(=O)C1=C(C)N(CC2CC2)C(=O)N[C@H]1c1ccccc1	3.25	1.62
CCOc1ccc(S(=O)(=O)N2CCN(C(=O)c3ccccc3Cc3ccccc3)CC2)cc1	1.19	-1.24
O=c1c2ccccc2nc2n1CCCCC2	0.89	-1.3
O=C(NC(c1ccccc1)c1ccccc1)c1ccc(=O)[nH]n1	0.82	-0.39
Cc1ccc(NC(=O)C2CC2c2ccccc2)c([N+](=O)[O-])c1 (centres undefined)	10.9*	0.01*
Cc1ccccc1CN(c1ccc(C(=O)NCc2cccnc2)cc1)S(C)(=O)=O	0.38	-0.75
Cn1c(SCC(=O)c2cc(Cl)c(Cl)s2)nnc1-c1ccco1	0.01	0
Nc1c(C(=O)NCc2ccc3c(c2)OCO3)nnn1Cc1ccc(Br)cc1	1.55	1.76
CCCCN(CC)c1nc(N)c(C#N)c(CC#N)c1C#N	0.26	0.89
Cc1ccc(NC(=O)c2cn(-c3cccc(C)n3)cn2)cc1	0.59	0.48

# (cont.)
Compound	KCNQ2 pot	KCNQ2 pot baseline
C=CCNc1ncnc2c1[nH]c1ccc(C)cc12	0.98	0
COc1ccccc1C(=O)Nc1ccnn1C1CCN(Cc2cnn(C)c2)CC1	0.27	-0.42
COc1ccc(NC(=O)CCc2nnc3ccc(NCc4ccco4)nn23)cc1OC	1.26	1.11
O=C(NCc1ccc(C(F)(F)F)cc1)c1ccc2c(c1)S(=O)(=O)c1ccccc1C2=O	0.01	0.65
CC(=O)c1c(C)[nH]c(C(=O)NCCC2=CCCCC2)c1C	0.34	0.73
O=C(C1CCCO1)N1CCN(S(=O)(=O)c2ccc(Cl)cc2)CC1 (centres undefined)	1.45	1.21
Cc1ccc(Cl)cc1N(CC(=O)N1CCOCC1)S(C)(=O)=O	0.33	0.31
CC(C)c1ccc(NS(=O)(=O)c2ccc(-n3cccn3)cc2)cc1	0.21	0.06
COc1ccccc1C(=O)NNC(=O)C1CCN(C(=O)OC(C)(C)C)CC1	0.59	-1.2
COc1ccc(CC(=O)NCc2nnc(SCC(=O)Nc3ccccc3)n2C)cc1	0.02	0.75
O=C(O)c1[nH]c2ccc([N+](=O)[O-])cc2c1-c1ccccc1	2.89	-1.54
CCOC(=O)c1nn(-c2ccc(Cl)cc2)cc1O	1.41	0.36
Cn1cccc1CC(=O)N/N=C\c1ccccc1	0.65	-1
O=C(Nc1cccnc1)c1cccc(NC(=O)c2ccco2)c1	1.34	0.05
O=c1[nH]c2ccc(S(=O)(=O)Nc3ccc(Cl)cc3)cc2o1	1.18	-0.17
COc1ccc(NC(=O)CCS(=O)(=O)c2cccc3nonc23)cc1	1.23	0.41
O=C(CCC(=O)N1CCOc2ccc(Cl)cc21)NCCN1CCOCC1	1.76	-0.36
O=C(COC(=O)Cn1c(C(F)(F)F)nc2ccccc21)Nc1ccc2c(c1)OCCO2	0.87	0.09
O=C(CCSc1ccccc1Cl)NNC(=O)c1ccncc1	0.19	-1.13
COC(=O)c1sc2nc(SCc3ccccc3C#N)n(N)c(=O)c2c1C	0.14	2.14
COc1cccc(NC(=O)C2CC(=O)N(Cc3ccc(C)cc3)C2)c1 (centres undefined)	1.07	-0.01
Cn1c(C(=O)Nc2ccc3c(c2)OCO3)cc2c(=O)n(C)c3ccccc3c21	0.11	-1.3
Cc1csc(=Nc2cccnc2)n1Cc1ccco1	1.44	-0.19
COc1c(/C=N/Nc2ccc([N+](=O)[O-])cc2[N+](=O)[O-])c(C)nn1-c1ccccc1	0.5	0.51
CCN1CCN(C(=O)c2ccc(OC)c(S(=O)(=O)Nc3ccc(C)cc3)c2)CC1	0.11	-0.69
O=C(c1ccco1)N1CCN(C(c2cccs2)c2nnnn2C2CCCCC2)CC1 (centres undefined)	0.24	1.29
CCCc1cc(=O)n2[nH]cc(-c3ccc(Cl)cc3)c2n1	2.66	-0.06
CCCNC(=O)c1onc(CSc2ccccn2)c1C(=O)NCCC	1.64	1.08
Cc1c(-n2cc(C(=O)c3ccccc3O)cc(C#N)c2=O)c(=O)n(-c2ccccc2)n1C	0.83	-0.44
CN1C(=O)CSc2ccc(NC(=O)NCc3ccco3)cc21	0.38	0.06
Cc1ccc(NC(=O)c2ccc(NCc3ccc(F)cc3)nc2)cc1	0.03	-2.62
CCOC(=O)c1[nH]c2cc(OC)c(OC)cc2c1NC(=O)CCN1CCSCC1	0.9	0.33
O=C(c1ccccc1)c1c[nH]c2cc3c(cc2c1=O)OCCO3	0.07	-0.04
CCn1c(SCc2ccccc2)nc2c1c(=O)[nH]c(=O)n2C	0.21	-0.43
CC(=O)c1ccc(NC(=O)C2CCCN(S(=O)(=O)c3cccc4nonc34)C2)cc1 (centres undefined)	0.07	1.71
COc1ccc([N+](=O)[O-])cc1NC(=O)CSc1nncn1-c1ccccc1	0.52	-0.7
O=C(Nc1cccn2ncnc12)C(F)(F)F	1.6	0.29
O=C(N1CCOCC1)N1CCN(S(=O)(=O)c2ccc(F)cc2)CC1	1.07	-1.79
C/C(=N\Nc1nncc2ccccc12)c1ccc(OCC(=O)N(C)C)cc1	2.45	0.1
Cc1cccc(C)c1NC1=NC(C)(C)N=C(N)N1	1.21	-1.8

# Structures listed so far containing a COOH group (5):
Compound	KCNQ2 pot	KCNQ2 pot baseline
COC(=O)COc1ccc(C2Nc3c(Cl)ccc(C(=O)O)c3C3C=CCC32)cc1 (centres undefined)	0.13	-0.81
Cc1cc(/C=N/Nc2ccc([N+](=O)[O-])cn2)c(C)n1-c1cccc(C(=O)O)c1	0.1	0.16
COCCCN1Cc2cccc(C(=O)O)c2C1=O	0.58	-2.38
CCOc1ccc(OCCOc2ccc(/C=C/C(=O)O)cc2OCC)cc1	3.04	-0.53
O=C(O)c1[nH]c2ccc([N+](=O)[O-])cc2c1-c1ccccc1	2.89	-1.54

# (list continues)
Compound	KCNQ2 pot	KCNQ2 pot baseline
CC(C)Cn1c(N)c(C(=O)COC(=O)c2ccncc2)c(=O)n(C)c1=O	0.48	1.82
Nc1ccc(C(=O)N/N=C\C=C\c2ccc([N+](=O)[O-])cc2)cc1	0.39	0.52
Cc1ccc(NC(=O)CSc2nnc(-c3cccnc3)n2-c2ccc(C)cc2)cc1	1.19	0.57
CCCCCc1ccc(CC(=O)N2CCOCC2)cc1	0.05	0.35
CC(=O)Nc1cccc(C(=O)OCc2ccc(C(=O)Oc3ccc(Cl)cc3)cc2)c1	0.49	-1.27
Cc1csc(NC(=O)c2ccc(S(=O)(=O)N3CCN(C)CC3)cc2)n1	0.3	-0.56
CCCCCC(=O)Nc1cccc(C2=NOC3(C2)C[C@@H](C(N)=O)N(C(=O)c2ccc(Cl)cc2)C3)c1 (some centres undefined)	0.02	-0.02
O=S(=O)(/C=C/c1cccc(Br)c1)N1CCOCC1	0.55	-1.34
CC(C)CNC(=O)N1c2ccccc2Sc2ccccc21	1.07	-0.23
CC(C)c1cc(N=NC(N)=O)cc(C(C)C)c1O	0.49	-0.95
COc1cccc(C(=O)N2CCN(c3ncccn3)CC2)c1	0.36	1.92
COc1cc(Cl)c(NS(=O)(=O)c2c(C(=O)N3CCCC3)c(C)n(C)c2C)c(OC)c1	0.1	1.53
CN(C(=O)c1cc(C(=O)N(C)c2ccccc2)cc([N+](=O)[O-])c1)c1ccccc1	0.3	0.91
CCCCCCOc1ccc(C(CC(=O)O)C(N)=O)cc1 (centres undefined)	0.25	-0.48
Cc1ccc2nc(-c3ccc(-c4ccccn4)s3)cn2c1	0.66	0.93
CC(O)(C#CCN1CCOCC1)c1ccccc1 (centres undefined)	0.49	1.9
C=CCOc1ccc(/C=N/n2nnnc2N)cc1OC	1.87	0.99
CCOC(=O)C1CCN(c2ccc(C(N)=O)cc2[N+](=O)[O-])CC1	0.53	1.05
O=C(N/N=C/c1c[nH]c2ccccc12)c1cc2ccccc2o1	0.62	1.41
CC(NC(=S)Nc1ccc(F)cc1)c1ccccc1 (centres undefined)	0.05	-0.22
COc1ccc(-c2nnc(SCC(=O)N3CCCC3)o2)c(OC)c1	0.47	1.09
O=C(Nc1ccccc1)N(CCCN1CCOCC1)Cc1cc2cc3c(cc2[nH]c1=O)OCCO3	0.68	0.88
Cc1ccc(S(=O)(=O)N[C@@H](C)C(=O)N2CCC(C(=O)N3CCC[C@H]3C(=O)O)CC2)cc1	0.26	1.25
CCN(C(=O)COC(=O)CSc1ccc([N+](=O)[O-])cc1)C1CCS(=O)(=O)C1 (centres undefined)	0.53	0.29
Cc1ccc(NC(=O)C(Cc2ccccc2)NC(=O)c2ccco2)cc1 (centres undefined)	0.01	0.77
COc1cccc(NS(=O)(=O)c2ccc(NC(C)=O)cc2)c1	1.86	-0.31
O=c1c2[nH]cnc2n(-c2ccccc2)c(=O)n1Cc1ccccc1	1.44	-0.32
O=C(NC1CC1)c1ccc(F)cc1Cl	1.02	-0.16
COc1cccc(CNc2ccc3c(c2)ncn3C(C)C)c1OC	0.28	0.17
CSc1ccccc1NC(=O)CSc1nncs1	0.81	1.74
CCCCCc1ccc(-c2cn(Cc3ccc(C(=O)c4ccccc4)cc3)nn2)cc1	0.03	1.86
